Source: PubChem BioAssay (Broad Institute)
Vaccinia inh: blocks a specific stage of Vaccinia orthopoxvirus infection, primary screen, cell-based, single point | hit rate 0.01% among 89,000 | Vaccinia-infected cells, mCherry/Venus stage reporter fluorescence; stronger effect = lower value; some inactives read as strong as hits | activity change (mCherry), % (no concentration beside the values) | AID 1053133, 2014;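 active = mCherry past -33% and 40 or more points under the early reporter, replicates agreeing; inconclusive = past -33% without that gap or agreement; tested in A549 cells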;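 note: scaled between vehicle wells and reference inhibitor wells; 23 nL library stock went into each well; one replicate is shown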
Vaccinia inh Venus: also measured in Vaccinia inh; calls as there; activity change (Venus), %; measured here: Venus reporter, other viral stage;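 negative = less Venus signal; first of two replicates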
The depositor's hits bear a star; ? = inconclusive; nt = no result given. This is a subset. The share of hits here may be higher or lower than overall.

SMILES	Vaccinia inh	Vaccinia inh Venus
C[C@@H]1CN([C@H](C)CO)C(=O)c2cccc(NS(=O)(=O)c3ccc(F)cc3)c2O[C@H]1CN(C)Cc1ccccc1	-6	-1
Cc1ccc(S(=O)(=O)NC2CCN(Cc3cccc(OCCO)c3)CC2)cc1	-20	-12
COCC(=O)N(C)C[C@@H]1Oc2cc(C3=CCCCC3)ccc2S(=O)(=O)N([C@@H](C)CO)C[C@@H]1C	-8	-13
N#C[C@@H]1[C@H](c2ccccc2C2=CCCCC2)[C@H](CO)N1C(=O)Cc1ccncc1	-11	-11
COc1ccc(S(=O)(=O)Nc2ccc3c(c2)CC(=O)N([C@@H](C)CO)C[C@H](C)[C@H](CN(C)Cc2ccncc2)O3)cc1	6	-5
C[C@H]1CN([C@@H](C)CO)C(=O)c2cc(NC(=O)Nc3ccccc3)ccc2O[C@@H]1CN(C)Cc1ccc(Oc2ccccc2)cc1	?	nt
Cc1noc(C)c1NC(=O)N(C)C[C@@H]1Oc2ccc(NC(=O)CCN3CCOCC3)cc2CC(=O)N([C@H](C)CO)C[C@@H]1C	-6	0
CO[C@H]1CN(C)C(=O)c2ccc(NS(=O)(=O)c3ccccc3F)cc2OC[C@@H](C)NC[C@@H]1C	18	17
O=C(Nc1ccc(F)cc1)N1C[C@@H]2[C@H](c3ccccc31)[C@@H](CO)N2C(=O)Cc1ccccn1	8	10
COc1ccc2c3c(n(C)c2c1)[C@H](CO)N(C(=O)C1CCC1)CC31CN(Cc2cccc(F)c2)C1	-26	-27
N[C@H]1CC[C@@H](CCn2cc(-c3ccccn3)nn2)O[C@H]1CO	4	-1
Cc1noc(C)c1S(=O)(=O)N(C)C[C@H]1Oc2ccc(NC(=O)NC3CCCCC3)cc2CC(=O)N([C@@H](C)CO)C[C@@H]1C	28	20
O=S(=O)(NCC[C@H]1CC[C@H](NS(=O)(=O)c2ccccc2Cl)[C@H](CO)O1)c1ccc(Cl)cc1	-20	-5
COc1ccccc1C(=O)Nc1ccc2c(c1)C(=O)N(C)C[C@H](OC)[C@H](C)CN(C)[C@@H](C)CO2	-5	-5
COC(=O)C[C@@H]1C=C[C@H](NC(=O)c2ccccc2)[C@H](CO)O1	-2	-2
C[C@H](CO)N1C[C@H](C)[C@H](CN(C)C(=O)Nc2ccc(F)cc2)Oc2ncccc2C1=O	17	5
C[C@@H]1CN([C@@H](C)CO)C(=O)c2cc(NS(=O)(=O)c3ccc(Cl)cc3)ccc2O[C@@H]1CN(C)Cc1ccc(C(=O)O)cc1	29	21
C[C@H]1CN([C@@H](C)CO)C(=O)c2cc(Br)cnc2O[C@@H]1CN(C)C(=O)CN(C)C	15	11
CCCC#Cc1ccc([C@@H]2[C@H](CO)N3CCCCN(S(=O)(=O)Cc4ccccc4)C[C@@H]23)cc1	?	nt
CC(C)NC(=O)N(C)C[C@H]1Oc2ncc(C#CCc3ccccc3)cc2C(=O)N([C@H](C)CO)C[C@H]1C	5	6
C=CCN1C(=O)[C@]2(O[C@H](CCO)[C@@H]([Si](C)(C)c3ccc(OC)cc3)[C@@H]2C)c2cc(N3CCOC3=O)ccc21	?	nt
COC(=O)[C@H]1[C@H](CO)[C@H]2Cn3c(ccc(-c4cccc(C(=O)N(C)C)c4)c3=O)[C@H]2N1C	9	9
CC(C)NC(=O)N(C)C[C@H]1OCCCC[C@H](C)Oc2ccc(NC(=O)C3CCCCC3)cc2C(=O)N([C@H](C)CO)C[C@H]1C	20	2
CS(=O)(=O)Nc1ccc2c(c1)[C@H]1C[C@@H](CC(=O)NCc3ccncc3)O[C@@H](CO)[C@H]1O2	15	5
C[C@@H]1CN([C@H](C)CO)C(=O)c2cccc(N(C)C)c2O[C@H]1CN(C)S(=O)(=O)c1ccc(Cl)cc1	-20	-20

10 consecutive records out of the list so far:
SMILES	Vaccinia inh	Vaccinia inh Venus
C[C@@H]1CN([C@H](C)CO)C(=O)c2cccc(NS(=O)(=O)c3ccc(F)cc3)c2O[C@H]1CN(C)Cc1ccccc1	-6	-1
Cc1ccc(S(=O)(=O)NC2CCN(Cc3cccc(OCCO)c3)CC2)cc1	-20	-12
COCC(=O)N(C)C[C@@H]1Oc2cc(C3=CCCCC3)ccc2S(=O)(=O)N([C@@H](C)CO)C[C@@H]1C	-8	-13
N#C[C@@H]1[C@H](c2ccccc2C2=CCCCC2)[C@H](CO)N1C(=O)Cc1ccncc1	-11	-11
COc1ccc(S(=O)(=O)Nc2ccc3c(c2)CC(=O)N([C@@H](C)CO)C[C@H](C)[C@H](CN(C)Cc2ccncc2)O3)cc1	6	-5
C[C@H]1CN([C@@H](C)CO)C(=O)c2cc(NC(=O)Nc3ccccc3)ccc2O[C@@H]1CN(C)Cc1ccc(Oc2ccccc2)cc1	?	nt
Cc1noc(C)c1NC(=O)N(C)C[C@@H]1Oc2ccc(NC(=O)CCN3CCOCC3)cc2CC(=O)N([C@H](C)CO)C[C@@H]1C	-6	0
CO[C@H]1CN(C)C(=O)c2ccc(NS(=O)(=O)c3ccccc3F)cc2OC[C@@H](C)NC[C@@H]1C	18	17
O=C(Nc1ccc(F)cc1)N1C[C@@H]2[C@H](c3ccccc31)[C@@H](CO)N2C(=O)Cc1ccccn1	8	10
COc1ccc2c3c(n(C)c2c1)[C@H](CO)N(C(=O)C1CCC1)CC31CN(Cc2cccc(F)c2)C1	-26	-27

Later entries:
SMILES	Vaccinia inh	Vaccinia inh Venus
C[C@@H]1CN([C@@H](C)CO)C(=O)c2ccccc2-c2ccccc2CO[C@H]1CN(C)S(=O)(=O)c1ccc(C(F)(F)F)cc1	?	nt
Cc1cc(C(=O)Nc2cccc3c2O[C@H](CN(C)C(=O)Nc2c(C)noc2C)[C@H](C)CN([C@H](C)CO)C3=O)n(C)n1	11	2
COc1cccc(S(=O)(=O)Nc2ccc3c(c2)C(=O)N(C)C[C@H](OC)[C@H](C)CN(Cc2ccccc2F)[C@H](C)CO3)c1	?	nt
O=C(C[C@H]1C[C@H]2c3cc(NC(=O)C4CCC4)ccc3O[C@H]2[C@@H](CO)O1)NC1CCCC1	10	18
COc1ccc(NC(=O)N2C[C@H](O)COC[C@@H]3O[C@H](CC(=O)NC4Cc5ccccc5C4)CC[C@H]32)cc1	-8	-4
COc1ccc(S(=O)(=O)Nc2ccc3c(c2)C(=O)N([C@H](C)CO)C[C@@H](C)[C@@H](CN(C)S(=O)(=O)c2cccs2)O3)cc1	5	5
Cc1ccc(-c2cnc3c(c2)C(=O)N([C@@H](C)CO)C[C@H](C)[C@H](CN(C)C(=O)c2ccncc2)O3)cc1	12	14
O=C(Nc1ccccc1F)N[C@@H]1CC[C@H](CCNS(=O)(=O)c2ccccc2)O[C@H]1CO	9	6
CCCc1cn(CC[C@@H]2CC[C@@H](NC(=O)Cc3cccnc3)[C@H](CO)O2)nn1	13	8
COc1ccc(S(=O)(=O)N(C)C[C@H]2OCCCC[C@H](C)Oc3ccc(NS(=O)(=O)c4ccc(C)cc4)cc3C(=O)N([C@@H](C)CO)C[C@@H]2C)cc1	-25	-22
O=C(NCC[C@@H]1CC[C@@H](NC(=O)c2cnccn2)[C@@H](CO)O1)Nc1ccc(F)cc1	11	3
CC(=O)N1[C@@H]2Cn3c(ccc(C4=CCCC4)c3=O)[C@H]1[C@@H](C(=O)N[C@H](C)c1ccccc1)[C@@H]2CO	16	3
C[C@H]1CN([C@@H](C)CO)S(=O)(=O)c2ccc(-c3ccccc3)cc2O[C@H]1CN(C)C	-10	-1
C[C@H]1CN([C@@H](C)CO)C(=O)c2cc(NS(=O)(=O)c3cccs3)ccc2O[C@H]1CN(C)S(=O)(=O)c1ccc(F)cc1	-5	-8
COCC(=O)N(C)C[C@H]1Oc2cc(C#CCC(C)C)ccc2S(=O)(=O)N([C@@H](C)CO)C[C@H]1C	-7	-5
C[C@@H](NC(=O)C[C@@H]1C=C[C@@H](NC(=O)C2CCC2)[C@@H](CO)O1)c1ccccc1	-1	-2
Cc1noc(C)c1NC(=O)Nc1ccc2c(c1)CC(=O)N([C@@H](C)CO)C[C@H](C)[C@@H](CN(C)Cc1ccccc1)O2	5	6
CC(C)(O)C#Cc1ccc([C@@H]2[C@H]3CN(C(=O)c4cccnc4)CCCCN3[C@H]2CO)cc1	13	5
C[C@@H]1CN([C@@H](C)CO)S(=O)(=O)c2ccc(C#CCN(C)C)cc2O[C@H]1CN(C)C(=O)C1CCC1	9	1
Cc1noc(C)c1NC(=O)Nc1ccc2c(c1)C(=O)N([C@H](C)CO)C[C@H](C)[C@@H](CN(C)CC1CCCCC1)O2	5	-2
C[C@H](CO)N1C[C@H](C)[C@H](CN(C)C(=O)Nc2ccc(F)cc2)OCCCC[C@H](C)Oc2ccc(NS(=O)(=O)c3ccccc3)cc2C1=O	?	nt
COc1ccccc1-c1ccccc1[C@H]1[C@@H](CO)N(C(=O)CN(C)C)[C@H]1C#N	0	3
C[C@@H]1CN([C@@H](C)CO)C(=O)c2cc(NC(=O)CCCN(C)C)ccc2O[C@H]1CN(C)Cc1ccc(Oc2ccccc2)cc1	-15	-11
O=C(C[C@H]1C=C[C@@H](NC(=O)Nc2ccc(C(F)(F)F)cc2)[C@@H](CO)O1)NCc1cc(F)cc(F)c1	?	nt
COc1cccc(NC(=O)N(C)C[C@@H]2Oc3cc(C#Cc4ccc(F)cc4)ccc3S(=O)(=O)N([C@@H](C)CO)C[C@@H]2C)c1	?	nt
Following part
SMILES	Vaccinia inh	Vaccinia inh Venus
C[C@H](CO)N1C[C@H](C)[C@@H](CN(C)C(=O)c2ccccc2)Oc2ncc(-c3ccc(C#N)cc3)cc2C1=O	6	1
C[C@@H]1CN([C@H](C)CO)C(=O)c2cc(NC(=O)Nc3cccc4ccccc34)ccc2O[C@@H](C)CCCCO[C@H]1CN(C)C(=O)C1CCCCC1	9	22
CCCC(=O)Nc1ccc2c(c1)C(=O)N(C)C[C@H](OC)[C@@H](C)CN(Cc1ccc(-c3ccccn3)cc1)[C@@H](C)CO2	2	5
O=C(O)C[C@H]1C[C@@H]2c3cc(NC(=O)c4cccnc4)ccc3O[C@@H]2[C@H](CO)O1	4	-3
C[C@H](O)C#Cc1cnc2c(c1)C(=O)N([C@H](C)CO)C[C@H](C)[C@@H](CN(C)C(=O)CC1CC1)O2	12	7
CC(=O)N(C)C[C@H]1Oc2ncc(-c3ccc(F)cc3)cc2C(=O)N([C@H](C)CO)C[C@H]1C	8	17
CNC[C@H]1Oc2ncc(-c3cccc(C(=O)N(C)C)c3)cc2C(=O)N([C@@H](C)CO)C[C@H]1C	20	10
CCN1CC(=O)N2[C@H](CO)[C@@H](c3ccc(-c4cccnc4)cc3)[C@H]2C1	14	-2
CO[C@H]1CN(C)C(=O)c2cc(NC(=O)c3ccccc3F)ccc2OC[C@H](C)N(C)C[C@H]1C	5	5
O=C(c1cccc(F)c1)N1CC2(C1)[C@@H](c1ccccc1)[C@@H](CO)N2C(=O)C1CCOCC1	5	9
COc1ccccc1NC(=O)N[C@@H]1CC[C@H](CC(=O)N[C@H](C)c2ccccc2)O[C@@H]1CO	5	9
Cc1noc(C)c1NC(=O)Nc1ccc2c(c1)C(=O)N([C@H](C)CO)C[C@H](C)[C@@H](CN(C)S(C)(=O)=O)OCCCC[C@@H](C)O2	12	7
Cc1cccc(S(=O)(=O)N[C@@H]2CC[C@@H](CCNC(=O)CCN3CCCCC3)O[C@@H]2CO)c1	-15	-6
COc1ccc(S(=O)(=O)Nc2ccc3c(c2)C(=O)N([C@H](C)CO)C[C@@H](C)[C@@H](CN(C)C(=O)CCC(F)(F)F)OCCCC[C@@H](C)O3)cc1	?	nt
C[C@@H]1CN([C@H](C)CO)C(=O)c2cc(NS(=O)(=O)c3cccs3)ccc2O[C@@H](C)CCCCO[C@H]1CN(C)S(=O)(=O)c1ccc(F)cc1	-14	-11
COc1cccc(NC(=O)N[C@@H]2C=C[C@H](CC(=O)NCc3ccccn3)O[C@@H]2CO)c1	3	4
C[C@@H]1CN([C@H](C)CO)C(=O)c2cc(NC(=O)CCC(F)(F)F)ccc2O[C@@H]1CN(C)C(=O)Nc1ccc(C(F)(F)F)cc1	-4	-9
C[C@H]1CN([C@@H](C)CO)S(=O)(=O)c2ccc(-c3ccccc3)cc2O[C@@H]1CN(C)Cc1cncnc1	?	nt
CN(C)C(=O)c1cccc(-c2ccccc2[C@H]2[C@@H](CO)N(C(=O)C3CCC3)[C@H]2C#N)c1	-3	1
Cn1cnc(S(=O)(=O)N[C@H]2C=C[C@@H](CC(=O)Nc3ccc(-c4ccccc4)cc3)O[C@@H]2CO)c1	-6	-4
C[C@@H]1CN([C@H](C)CO)S(=O)(=O)c2ccc(-c3ccncc3)cc2O[C@H]1CN(C)Cc1ccccn1	-14	-11
C[C@@H]1CCCCO[C@@H](CN(C)Cc2ccccc2)[C@@H](C)CN([C@H](C)CO)C(=O)c2cc(NC(=O)Nc3cccc4ccccc34)ccc2O1	-19	-19
C[C@@H]1CN([C@H](C)CO)C(=O)c2cccc(NS(=O)(=O)c3cccs3)c2O[C@@H]1CN(C)S(=O)(=O)c1ccc(F)cc1	19	20
C[C@@H]1CN([C@@H](C)CO)C(=O)c2cc(NC(=O)NC3CCCCC3)ccc2O[C@@H](C)CCCCO[C@H]1CN(C)C	3	-3
COCC(=O)N1[C@H](C(=O)NCc2ccccc2F)[C@@H](CO)[C@@H]2Cn3c(cccc3=O)[C@@H]21	-2	0
C[C@H](CO)N1C[C@H](C)[C@H](CN(C)Cc2ccncc2)Oc2c(NS(=O)(=O)c3ccc(F)cc3)cccc2C1=O	4	7
O=C(Nc1ccc2c(c1)[C@@H]1C[C@H](CC(=O)N3CCCCC3)O[C@@H](CO)[C@@H]1O2)c1ccc2c(c1)OCO2	-6	-2
C[C@@H]1CN([C@@H](C)CO)C(=O)c2cc(NC(=O)Nc3ccc(F)cc3)ccc2O[C@@H](C)CCCCO[C@@H]1CN(C)S(=O)(=O)c1cccs1	21	20
COc1ccc(NC(=O)Nc2ccc3c(c2)C(=O)N([C@H](C)CO)C[C@H](C)[C@H](CN(C)Cc2ccc(Cl)c(Cl)c2)OCCCC[C@H](C)O3)cc1	-12	-7
